High-throughput results (PubChem)
Rango-impB inh – prevents formation of the Rango-importin beta complex | Rango CFP/YFP FRET sensor + importin beta, 45 min | Potency, µM (titrated, usually from 92.2 µM), inactives show at the highest dose inhibition of complex formation | actives 0.031% (n = 340,000); active = rising FRET ratio curve, often small or poorly fitted; inconclusive = mostly compound fluorescence or quenching in the first reads; inactive = flat curves in all reads;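 further: potency means the concentration at half of the fitted maximal effect; 0% = DMSO wells and 100% = buffer wells lacking importin beta; nearly all actives have a fitted effect of over 15% in size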
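FRET biosensor (snurportin 1 IBB flanked by EYFP and cerulean), 50 nM, with compound 5 min, then 0.125 microM importin beta in PBS, 1 mM DTT, 0.02% Tween-20, 0.1% BSA. CFP/YFP ratio read after 45 min at room temperature; pre-read flags interference.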
GLA inh pH 4.5 – inhibitors of human alpha-galactosidase A at pH 4.5 | P06280 | purified enzyme, 4-MU-alpha-Gal fluorescence, pH 4.5 | activity change, negative = inhibition, % at 105 µM | 230,000 tested, under 10 active; inconclusive = small, poorly fitted or top-dose-only inhibition, or a rising curve; inactive = flat fitted curve, though single readings scatter; no compound was filed as active;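 further: 0% = full activity with enzyme and -100% = basal without enzyme; dose as in the result columns while the protocol names 77 µM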
Target sequence (P06280 whole entry, looked up): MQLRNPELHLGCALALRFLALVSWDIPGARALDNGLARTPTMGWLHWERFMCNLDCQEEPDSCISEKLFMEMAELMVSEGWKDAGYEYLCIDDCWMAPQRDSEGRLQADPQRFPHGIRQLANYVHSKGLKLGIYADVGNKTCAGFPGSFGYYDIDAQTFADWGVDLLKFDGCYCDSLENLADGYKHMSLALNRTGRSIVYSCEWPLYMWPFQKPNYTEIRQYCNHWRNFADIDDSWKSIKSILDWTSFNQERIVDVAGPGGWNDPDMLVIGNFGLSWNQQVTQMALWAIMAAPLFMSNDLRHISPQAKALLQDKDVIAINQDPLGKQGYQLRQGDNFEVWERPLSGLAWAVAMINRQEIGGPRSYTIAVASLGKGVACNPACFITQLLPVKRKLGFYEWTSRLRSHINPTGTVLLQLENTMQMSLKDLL
miR-21 reporter – miR-21 reporter, rising signal. HeLa miR-21 FLuc reporter, luciferase, 48 h. Potency, µM (series often up to 38.3 µM), without a hit: at the top dose reporter change, positive = more light. 340,000 tested, under 10 active; active = well fitted rising curve with a large enough effect; inconclusive = small, poorly fitted or top-dose-only effect; inactive = no such curve, though single readings can be large or run the other way;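 further: % of control where 0% means no effect; miR-21 action dims this reporter so a rising signal means less miR-21 action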
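Luminescence from a firefly luciferase reporter carrying a miR-21 binding site downstream, stably expressed under a CMV promoter in HeLa cells that make miR-21 endogenously, reports miRNA modulation after 48 h compound exposure up to approximately 40uM final.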
Rango release inh – inhibition of RanGTP-driven Rango-importin beta dissociation. O95149+P62826. Biochemical FRET Rango-importin beta, RanGTP-induced dissociation. Potency, µM (highest dose often 46.1 µM), without a hit: top-dose activity change, negative = inhibition. actives 0.071% (n = 340,000); active means falling FRET ratio curve, often poorly fitted, with flat reads before Ran was added; inconclusive means other falling curves, or compound fluorescence or quenching; inactive means flat or rising ratio curve;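 further: potency means the concentration at half of the fitted maximal effect; % of control where 0% means no effect; nearly all actives have a fitted effect of over 45% in size; -100% = wells without RanGTP and RCC1; the record marks most hits as doubtful in a second field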
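Two FRET readings bracket the reaction: one 5 min after compound meets Rango–importin beta, another 45 min after RanGTP-RCC1 (0.6 uM Ran, 0.2 uM RCC1, 2 mM GTP) is added. Only the second defines inhibition.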
Active calls of the source: *; u = inconclusive; x = no result given; & = joins results of further samples. This is a subset. The share of hits here may be higher or lower than overall.

SMILES | Rango-impB inh | GLA inh pH 4.5 | miR-21 reporter | Rango release inh
COC(=O)[C@@]12CCCCN1[C@H](c1ccc(-c3ccc(Cl)c(Cl)c3)c(OC)c1)[C@H]1C(=O)N(C)C(=O)[C@H]12 | -0.4% | x | x | -16.9%
COc1cccc(C2CC(c3ccc(F)cc3)Nc3nc(N)nn32)c1 (configuration not stated) | 0.1% | -0.9 | -4.2% | -6.3%
C=CCn1cccc(C(=O)Nc2cc(OC)ccc2OC)c1=O | 2.7% | -15.1 | -6.8% | -4.7%
COC(=O)c1cccc(NC(=O)Cc2ccccc2[N+](=O)[O-])c1C | -4.4% | 21.3 | -3.9% | 0.9%
Cc1c(CCC(=O)NCCCC(=O)O)c(=O)oc2cc3oc4c(c3cc12)CCCC4 | -0.6% | x | 18.1% | 0.7%
COc1ccc(-n2c(=O)/c(=C\c3cccs3)s/c2=C(/C#N)C(=O)NCCN2CCOCC2)cc1 | u | 1.7 | -4.0% | u
Cc1ccc2sc(NNC(=O)C3COc4ccccc4O3)nc2c1C (configuration not stated) | 2.2% | -4.3 | -9.4% | -27.6%
COC(=O)NCc1cccc(CNC(=O)OC)c1 | -3.2% | 2.2 | -1.6% | 4.7%
COc1ccc(-c2cccc(C3CC=CC4C3C(=O)N(Cc3ccccc3)C4c3cc(C)ccc3F)c2)cc1 (configuration not stated) | x | 2.3 | 21.7% | x
O=C(CSc1nc(-c2ccco2)cc(C(F)(F)F)n1)NN1CCOCC1 | 2.3% | -4.7 | -1.7% | -6.3%
COCCCNC(=O)C(C#N)c1nc2ccccc2nc1N1CCCC1 (configuration not stated) | u | -9.3 | -16.4% | u
COc1cccc(NC(=O)C2CCCN2C(=O)NC2CCCCC2)c1 (configuration not stated) | 1.9% | x | 0.3% | -0.4%
CC1CCCCN1CCNC(=O)CC1Oc2ccccc2NC1=O (configuration not stated) | -2.0% | -0.6 | -1.8% | 10.2%
O=C(Nc1cnn(Cc2ccc(Cl)cc2)c1)c1cnccn1 | 3.5% | 4.6 | -21.9% | 2.0%
Cc1ccc(CN(C(=O)COc2ccc(C)c(C)c2)C2CCS(=O)(=O)C2)o1 (configuration not stated) | 4.8% | x | -1.6%&-4.8% | 0.8%
COc1ccccc1/C=C/C(=O)NCC(=O)N/N=C/c1ccccc1 | 0.3% | 1.8 | 0.2% | -11.5%
CCOC(=O)c1c(C)oc2cc(Br)c(OCC(N)=O)cc12 | -0.5% | -5.1 | -4.3% | 0.6%
Cn1c(NC(=O)Cc2cccs2)cc(=O)n(C)c1=O | -5.1% | 11.8 | -2.8% | u
CCOc1ccc(/C=C/c2nc(C#N)c(NCCCOC)o2)cc1 | u | x | 11.6% | -15.4%
CC(=O)c1cnc2cc(-c3ccccc3)nn2c1C | -1.8% | 0.8 | -41.7% | -7.4%
Cc1ccc2nc(NC(=O)CSCC(=O)OCC(=O)c3ccc(Br)cc3)sc2c1 | -0.7% | -5.5 | 10.7% | 0.9%
COc1cc(O)c2c(=O)c3c(O[C@H]4O[C@@H](CO)[C@H](O)[C@@H](O)[C@@H]4O)ccc(O)c3oc2c1 | -4.8% | x | x | -0.3%
COc1ccc(S(=O)(=O)Nc2cc(C)c(O)c(S(=O)(=O)c3ccccc3)c2)cc1 | 1.0% | -3.2 | 0.1% | 0.8%
O=C(OCCOCCN=C1NS(=O)(=O)c2ccccc21)C1CC(=O)N(c2ccccc2)C1 (configuration not stated) | -2.3% | 3.0 | -0.6% | -7.5%
CC(=O)Nc1ccc(S(=O)(=O)NNC(=O)CCC(=O)Nc2cc(C)ccc2C)cc1 | 0.7% | -4.9 | 6.2% | -18.4%
SMILES | Rango-impB inh | GLA inh pH 4.5 | miR-21 reporter | Rango release inh
CCc1ccc2[nH]c3nc(N/N=C/c4cccc(O)c4)nnc3c2c1 | -4.2% | x | 2.4% | 9.6%
O=C(c1ccncc1)N1CCN(c2cccc(C(F)(F)F)c2)CC1 | -0.2% | -3.3 | -7.8% | 23.4%
COc1cc(-c2nc3ccccn3c2NCc2ccccc2)ccc1SC1CCCCC1 | u | x | x | u
CCOC(=O)c1ccc(NC(=O)c2cc(OC)c(OC)c(OC)c2Br)cc1 | 0.6% | -12.7 | -6.5% | 1.3%
O=C(Cc1ccccc1)Nc1cccc(N2C(=O)C=CC2=O)c1 | 5.3% | -3.1 | u | -2.6%
COC(=O)Cn1ccc2cc(S(=O)(=O)N3CCCCC3)ccc21 | -0.1% | x | -1.7%&0.1% | -0.3%
O=C1N=C2N(CCN3CCCCC3)c3ccccc3N2/C1=C\c1ccc([N+](=O)[O-])o1 | x | 0.7 | 0.5% | x
Cc1cc(=O)oc2cc(Oc3ccc([N+](=O)[O-])cc3[N+](=O)[O-])ccc12 | -5.2% | 3.7 | -2.1% | 1.7%
CC(C)C1Cc2c(C#N)c(N)sc(=S)c2CO1 (configuration not stated) | 3.9% | -28.5 | -3.4% | -8.2%
O=C(CSc1nc2ccc([N+](=O)[O-])cc2s1)NCC1CCCO1 (configuration not stated) | 4.0% | x | 9.3% | -12.6%
Cc1cc(C)c(S(=O)(=O)N2CCN(C(=O)N3CCCCC3)CC2)c(C)c1 | 0.1% | x | -0.1% | 0.5%
Cn1ncc(C#N)c1NC(=O)c1nn2cccnc2c1Cl | 1.8% | -8.3 | -12.8% | 11.8%
CCC(C)(C(=O)NC1CCCCC1)N(C)C(=O)c1ccccn1 (configuration not stated) | -2.0% | -4.4 | 1.4% | 1.6%
CS(=O)(=O)Nc1ccc(-c2cn3cccnc3n2)cc1 | -3.4% | x | -33.9% | -13.3%
CC(C)CNS(=O)(=O)c1ccc(CCC(=O)N2CCOCC2)cc1 | -1.1% | 1.5 | -0.7% | 0.1%
CCn1cc(C(=O)NCCCN(C)C)c(=O)c2cc(F)c(N3CCN(C)CC3)cc21 | 2.7% | 5.5 | -4.7% | 31.3%
O=C(c1ccccc1)c1ncc[nH]1 | -4.4% | x | -18.1% | 1.7%
COc1ccc(N2C(=O)/C(=C/c3ccc([N+](=O)[O-])cc3)N=C2C)cc1 | -0.3% | 5.4 | -1.8% | -23.4%
CCOC(=O)C1=C(c2ccccc2)ON(C)C1c1ccccc1 (configuration not stated) | 2.9% | 8.4 | -6.8% | 5.5%
CCOc1cc(C2NC(=O)NC(O)(C(F)(F)F)C2C(=O)c2ccccc2)ccc1OC (configuration not stated) | 5.1% | -7.7 | -1.5% | 0.8%
COc1ccc(/C=N/NC(=O)c2cc3c(OC)ccc(OC)c3[nH]2)cc1O | 0.5% | x | 15.9% | -1.9%
Cn1cc([N+](=O)[O-])c(C(=O)Nc2ccc(C(=O)N3CCCCC3)cc2)n1 | -2.9% | 0.1 | -17.3% | 7.5%
CN(C)/C=C\C(=C/C(=O)C(F)(F)F)Nc1ccccc1Oc1ccccc1 | u | 1.8 | -3.4% | u
C=CCc1ccc(OCC(O)CN2CCCCC2C)c(OC)c1 (configuration not stated) | 2.0% | -5.7 | 0.9% | -18.0%
Clc1ccc(CSc2snnc2-c2ccccc2)cc1 | 3.5% | 3.5 | -17.1% | 1.2%

Profiles, looked up by structure. Order of screens: Rango-impB inh	GLA inh pH 4.5	miR-21 reporter	Rango release inh
CCOC(=O)C1=C(c2ccccc2)ON(C)C1c1ccccc1 (configuration not stated) as listed: 2.9%	8.4	-6.8%	5.5%
CCc1ccc2[nH]c3nc(N/N=C/c4cccc(O)c4)nnc3c2c1 as listed: -4.2%	x	2.4%	9.6%
COC(=O)Cn1ccc2cc(S(=O)(=O)N3CCCCC3)ccc21 as listed: -0.1%	x	-1.7%&0.1%	-0.3%
CC(C)C1Cc2c(C#N)c(N)sc(=S)c2CO1 (configuration not stated) as listed: 3.9%	-28.5	-3.4%	-8.2%
CCn1cc(C(=O)NCCCN(C)C)c(=O)c2cc(F)c(N3CCN(C)CC3)cc21 as listed: 2.7%	5.5	-4.7%	31.3%

Results in GLA inh pH 4.5 and miR-21 reporter (3 entries from above):
canonical_smiles	GLA inh pH 4.5	miR-21 reporter
Cn1cc([N+](=O)[O-])c(C(=O)Nc2ccc(C(=O)N3CCCCC3)cc2)n1	0.1	-17.3%
CN(C)/C=C\C(=C/C(=O)C(F)(F)F)Nc1ccccc1Oc1ccccc1	1.8	-3.4%
C=CCc1ccc(OCC(O)CN2CCCCC2C)c(OC)c1 (configuration not stated)	-5.7	0.9%

(next part)
SMILES | Rango-impB inh | GLA inh pH 4.5 | miR-21 reporter | Rango release inh
CCOc1ccc(N2C(=O)/C(=C\c3ccc(OC)c(O)c3)S(=O)(=O)C2c2cccc([N+](=O)[O-])c2)cc1 (configuration not stated) | 4.1% | -17.0 | -3.5% | 5.4%
CSc1ccc(S(=O)(=O)NCC(=O)OCC(=O)NCc2cccs2)cc1[N+](=O)[O-] | -1.0% | x | x | 13.2%
O=C(Nc1cccc(OCC(=O)N2CCOCC2)c1)c1cccc([N+](=O)[O-])c1 | -1.7% | 1.4 | 7.1% | 0.0%
O=S1(=O)N=C(N/N=C/c2ccc(Br)o2)c2ccccc21 | 2.3% | -23.4 | -1.2% | -16.3%
CCOc1ccc(NC(=O)CCC(=O)n2nc(C)cc2C)cc1 | x | -4.7 | -1.7% | x
CC12CCC(C/C1=N/O)C2(C)C (configuration not stated) | 5.6% | x | -0.5% | 3.0%
COc1ccc(OC)c(CN2CCN(C(=O)c3cc(S(=O)(=O)Nc4ccccc4OC)ccc3C)CC2)c1 | 0.7% | x | 10.9% | 1.5%
CC(C)(C)N(Cc1ccccc1)C(=O)COC(=O)CN1C(=O)NC2(CCCC2)C1=O | -4.4% | x | 0.6% | -0.7%
CC(C)CNC(=S)N(Cc1ccco1)Cc1cc2cc3c(cc2[nH]c1=O)OCCO3 | u | -1.3 | -0.6% | 6.7%
Cc1ccc(/C=N/n2cc(-c3ccccc3)[nH]c2=S)s1 | u | -6.2 | -21.1% | u
FC(F)(F)c1ccc(NCCc2ccccc2)nc1 | -1.0% | x | -7.4% | 0.7%
COc1ccc(C2/C(=C(\O)c3ccc4c(c3)OCCO4)C(=O)C(=O)N2Cc2cccnc2)cc1OC (configuration not stated) | -0.3% | x | 0.9% | 9.7%
C=CCn1c(COc2ccccc2F)nnc1SCCN1C(=O)c2ccccc2C1=O | 2.3% | -2.3 | -15.9% | 5.3%
COc1ccc(C(=S)N2CCN(C)CC2)cc1 | 1.2% | -1.7 | -5.4% | -16.6%
O=C(COC(=O)C1CCN(c2ccc(C(F)(F)F)cn2)CC1)c1ccccc1 | 0.5% | x | x | -0.2%
C=CCC[C@H](Cc1ccc(F)cc1)C(=O)OC[C@@H](NC(=O)[C@@H](CC=C)CC(=O)N[C@H](CO)Cc1ccccc1)C(C)(C)C | 8.2% | x | x | -2.5%
O=C(O)CC(CC(=O)Nc1ccc2ccccc2n1)c1ccccc1 (configuration not stated) | -2.7% | -2.8 | -1.7% | -8.9%
COC(=O)c1ccc(NC(=O)CN(Cc2ccc(Cl)cc2)S(C)(=O)=O)cc1 | 0.8% | -5.4 | 11.1% | -11.9%
COc1cc(CSc2nc(-c3ccccc3)cc(=O)[nH]2)cc(OC)c1 | 0.4% | x | -8.5% | 4.5%
CC(C)[C@H](NC(=O)OCc1ccccc1)C(=O)NC(C=O)Cc1ccccc1 (some centres not stated) | 6.9% | x | x | 1.2%
CC(C)(C)NC(=O)CN(C(=O)CN1C(=O)C(=O)c2ccccc21)C(C)(C)C | -3.3% | 3.7 | 0.6% | 2.9%
COc1ccc(OC)c(NC2=NC3(CCCCC3)N=C(N)N2)c1 | 5.2% | -2.7 | 1.0% | -7.0%
O=C(NC1CCCCC1)C(c1ccc2ncccc2c1)N(Cc1ccccc1)C(=O)c1ccc2c(c1)OCCO2 (configuration not stated) | -0.8% | -7.8 | 3.6% | 26.7%
COc1cc(OC)c(OC)cc1CN1CCN(S(=O)(=O)c2ccc(F)cc2)CC1 | 2.0% | -4.4 | 4.9% | 8.8%
CC(C)CNC(=O)Cn1c(=O)c2c(ncn2CC(C)C)n(Cc2ccccc2)c1=O | -4.7% | 3.2 | -0.7% | 0.0%
O=C(CSc1nc2ccccc2c(=O)n1-c1ccccc1)NCc1ccc2c(c1)OCO2 | -0.4% | -11.0 | -0.7% | -4.7%
N#Cc1c(-c2ccc(Cl)cc2)nc2n(c1=O)CCCS2 | -0.9% | -2.4 | -11.9% | 3.4%
